# eIF4H FP inh: human eIF4H binding inhibitors, primary screen, translation initiation inhibitor project, biochemical, uHTS, fluorescence polarization. Eukaryotic translation initiation factor 4H (Homo sapiens), Q15056. eIF4H fluorescence polarization binding assay. inhibition, % at 35 µM. actives 0.94% (n = 290,000). AID 2012, 2009;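 active = 50% or more with normal probe brightness, or confirmed in later tests; inconclusive = above 50% with abnormal brightness, or retests that disagree; inactive = below 50% or failed in later tests; about a fifth of its hits are not listed in these tables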;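 note: calls also rest on retests at 20 µM and on dose response follow-up; 0% = protein and probe with vehicle and 100% = probe without protein; strong numbers were not always called active; many hits fall short of the cut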
# PABP FP inh: PABP poly(A) RNA binding inhibitors, primary screen, biochemical, fluorescence polarization, uHTS | inhibition, % at 35 µM | actives 1% (n = 290,000) | Polyadenylate-binding protein 1 (Homo sapiens), P11940;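 active = 50% or more with normal probe brightness, or confirmed in later tests; inconclusive = above 50% with abnormal brightness, or retests that disagree; inactive = below 50% or failed in later tests; about a fifth of its hits are not listed in these tables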;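 note: calls also rest on retests at 20 µM and on dose response follow-up; controls were probe without protein and protein plus probe with vehicle; some compounds called inactive have numbers as strong as hits; many hits fall short of the cut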
# Target sequence (P11940 whole entry, looked up): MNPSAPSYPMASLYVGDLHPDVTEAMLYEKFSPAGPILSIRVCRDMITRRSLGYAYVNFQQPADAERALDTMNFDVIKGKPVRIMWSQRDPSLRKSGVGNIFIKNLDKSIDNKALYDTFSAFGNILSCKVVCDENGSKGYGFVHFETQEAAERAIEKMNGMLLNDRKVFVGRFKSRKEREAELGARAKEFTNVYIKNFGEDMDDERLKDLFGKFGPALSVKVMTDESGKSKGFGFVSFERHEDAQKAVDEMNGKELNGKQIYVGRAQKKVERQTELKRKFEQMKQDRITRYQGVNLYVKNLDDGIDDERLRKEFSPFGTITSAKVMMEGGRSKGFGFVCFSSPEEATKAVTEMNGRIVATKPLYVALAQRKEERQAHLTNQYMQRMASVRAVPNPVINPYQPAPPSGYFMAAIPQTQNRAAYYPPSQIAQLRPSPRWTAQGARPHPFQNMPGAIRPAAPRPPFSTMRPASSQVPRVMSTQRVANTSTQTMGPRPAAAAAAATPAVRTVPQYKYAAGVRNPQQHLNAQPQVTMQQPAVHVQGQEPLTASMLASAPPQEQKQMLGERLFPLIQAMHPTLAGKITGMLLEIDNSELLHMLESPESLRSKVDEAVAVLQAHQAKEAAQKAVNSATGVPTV
# Env fusion inh: inhibitors of HIV-1 Env-driven cell-cell fusion, primary screen, HeLa-JRFL effector, CEM21 target cells, luciferase. inhibition, % at 12.3 µM. actives 1.1% (n = 360,000). AID 651610, 2012;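 active = mean replicate inhibition score of at least 50 and every replicate individually at or above 50; inconclusive = only one of the two criteria met; inactive = mean below 50 and not all replicates reaching 50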;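 note: 0% = plate neutral controls and 100% = maraviroc near 300 nM; one replicate is shown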
# Rce1 inhib: yeast Rce1p protease inhibitors, primary screen, biochemical, fluorescence, cell-free homogeneous | CAAX prenyl protease 2 (Saccharomyces cerevisiae (strain ATCC 204508 / S288c)), Q03530 | yeast membranes, quenched prenylated peptide cleavage fluorescence | calls only | actives 0.27% (n = 290,000);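 active = fall in fluorescence gain of 50% or more versus controls, with final raw signal at or below 3038400; inconclusive = same 50% fall but final raw signal above 3038400; inactive = fall in fluorescence gain under 50%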;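 note: plate controls were neutral control wells for no effect and wells lacking membranes for full effect; tested at 10 µM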
# Target sequence (Q03530 whole entry, looked up): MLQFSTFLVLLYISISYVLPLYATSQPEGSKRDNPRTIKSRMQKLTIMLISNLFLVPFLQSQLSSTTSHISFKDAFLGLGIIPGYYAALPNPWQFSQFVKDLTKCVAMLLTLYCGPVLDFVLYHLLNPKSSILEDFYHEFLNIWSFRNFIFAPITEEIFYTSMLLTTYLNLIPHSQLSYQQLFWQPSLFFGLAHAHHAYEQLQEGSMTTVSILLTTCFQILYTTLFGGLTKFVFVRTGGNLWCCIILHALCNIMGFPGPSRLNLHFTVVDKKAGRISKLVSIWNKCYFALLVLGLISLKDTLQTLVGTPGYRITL
# UUG fidelity: modulators of yeast start codon fidelity, primary screen, whole organism, S. cerevisiae, single point, plate reader; S. cerevisiae UUG-firefly luciferase reporter, luminescence/redox ratio; activity score, % at 18.7 µM; actives 0.13% (n = 350,000); AID 602363, 2012;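 active = replicate mean at a twofold rise or more, about +100% in these data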;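 note: firefly luciferase made from a UUG start codon reports start codon fidelity; reporter light over untreated wells divided by growth signal over untreated wells; some hits fall short of that in this replicate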
# MT1-MMP act inh: blockers of MT1-MMP proenzyme processing, primary screen, HT1080 RFP-PRO-GFP cells, GFP/RFP fluorescence; actives 0.061% (n = 360,000); AID 651647, 2012; Matrix metalloproteinase-14 (Homo sapiens), P50281; GFP/RFP ratio fluorescence, overnight; percent of plate control window, DMSO zero; GFP/RFP ratio change, % at 20 µM;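 active = GFP/RFP ratio change of at least 30% with cell ATP level not reduced by more than half and red fluorescence within 50% of control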; note: strong numbers were not always called active
#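 Assay system – RFP-PRO-GFP reporter HT1080 cells · Compound dosing – single dose of 20 µM compound, 1% DMSO final · Incubation – overnight compound exposure at 37 °C · Measure – GFP/RFP fluorescence ratio · Benchmarks – DMSO wells and RFP-L50D-GFP cells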
# CSC inhib: cancer stem cell viability inhibitors, primary screen, luminescence | inhibition, % at 7.5 µM | actives 1.1% (n = 300,000) | cancer stem cell-like cells viability | AID 2717, 2010;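 active = mean at 75% or more and at least half the replicates too; inconclusive = mean and replicates disagree; tested in HMLE shEcad cells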;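 note: 0% = median of negative and 100% = median of positive control wells; the first replicate is given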
# eIF4H FP inh retest: also measured in eIF4H FP inh; calls as there; inhibition, %; compound at 20 µM; confirmation average;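 mean of two retest wells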
# PABP FP inh retest: further read-out of PABP FP inh, marked with its call; inhibition, %; compound at 20 µM; confirmation repeats;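 mean of two retest wells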
# MT1-MMP act inh RFP: also measured in MT1-MMP act inh; calls as there; RFP signal change, %; measured here: RFP expression control read;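 0 = vehicle wells; hits needed this value within 50% of zero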
# The depositor's hits bear a star; i = inactive; u = inconclusive; x = no result given; & = joins results of further samples; [ ] = dose if it differs, or a comment. An unsorted share of the library; any-hit rate near 2.9%.
SMILES,eIF4H FP inh,PABP FP inh,Env fusion inh,Rce1 inhib,UUG fidelity,MT1-MMP act inh,MT1-MMP act inh RFP,CSC inhib,others
O=C(Nc1ccc(F)cc1)c1ccc(Br)c(S(=O)(=O)N2CCOCC2)c1,-1.5,7.4,9.4,i,1.2,0.7,-20.9,x,
COc1ccc(-c2noc(CNC(=O)C(C)Oc3ccccc3)n2)cc1 (configuration not stated),-4.8,-11.4,3.0,i,-4.3,1.1,-5.3,-10.9,
CC(C)c1ccc(NC(=O)C2(C)Cc3c(-c4ccccc4)ccnc3O2)cc1 (configuration not stated),x,x,29.6,x,-17.1,-5.4,-5.6,x,
COc1ccc(/C=C2\SC(=O)N=C2N)cc1,-1.6,-6.0,-19.9,i,x,-4.5,1.8,2.2,
Cc1c(C(=O)N(CC(C)C)c2c(N)n(Cc3ccccc3)c(=O)[nH]c2=O)sc2nc3n(c(=O)c12)CCC3,x,x,-5.8,i,-6.0,-3.4,1.0,-7.9,
CCOC(=O)c1ccc(NC(=O)CCNS(=O)(=O)c2cc(Br)cnc2N)cc1,x,x,1.2,i,-19.9,-1.3,-3.4,6.0,
COc1ccc(N(CC(=O)Nc2cc(Cl)ccc2OC)S(=O)(=O)c2c(C)noc2C)cc1,-12.0,-7.9,-31.6,i,-16.3,-3.2,-20.2,53.2,
CCCCCC(=O)Nc1nnc(CCc2ccccc2)s1,-7.4,0.6,3.8,i,-4.2,-2.5,-1.2,10.2,
Cc1ccccc1CNC(=O)CCC(=O)N1CCOc2ccc(Cl)cc21,-12.3,-2.5,x,i,-3.5,1.5,4.2,-7.0,
CNc1ccccc1C(C)(C)c1cc(-c2cccc([N+](=O)[O-])c2)no1,-1.0,8.6,7.3,i,14.3,0.6,-10.0,3.2,
CN1C(=S)SC(N2OC3C(=O)N(c4ccccc4)C(=O)C3C2c2ccccc2)C1(C)C (configuration not stated),-6.8,-1.9,31.2,i,x,x,x,x,
O=C(Cn1cccn1)N1CCCC(N2CCN(c3cccc(C(F)(F)F)c3)CC2)C1 (configuration not stated),-5.9,-6.7,-6.2,i,-11.2,-1.5,-1.6,x,
O=C(COC(=O)c1cnccn1)NCc1ccc(Cl)cc1,-0.4,12.8,-4.6,i,x,3.9,4.2,5.4,
O=C(NCC1CCCN(Cc2cccc(C(F)(F)F)c2)C1)c1ccc(F)cc1 (configuration not stated),1.8,0.4,25.2,i,x,-5.8,-2.2,-0.3,
S=c1[nH]cnc2sc(-c3ccccc3)cc12,-8.6,8.0,-6.4,i,-33.1,-4.6,-2.6,3.9,
CCOC(=O)Nc1ccc(S(=O)(=O)Nc2nccc(C)n2)cc1,-3.9,-7.0,14.1,i,3.2,-0.2,0.4,-6.9,
CCOC(=O)CCNC(=O)N1CCC(CCC(=O)NCc2ccc(F)cc2)CC1,-1.5,6.1,-8.0,i,4.0,-1.1,-0.1,-7.7,
CCOC(=O)C1=C(C)NC(=O)NC1c1cccc(O)c1 (configuration not stated),-5.6,2.3,-22.0,i,-22.5,3.2,3.0,-16.2,
COC(=O)c1ccc(NC(=O)C(=O)c2c[nH]c3ccccc23)cc1,-8.4,-0.4,-16.7,i,-26.7,-0.3,-2.2,-6.4,
Cc1cc(OCC(=O)OCC(=O)NC2CCS(=O)(=O)C2)ccc1Cl (configuration not stated),x,x,-58.5,x,-8.7,4.5,3.2,x,
COc1ccc(C)cc1S(=O)(=O)N1CCCC(C(=O)N2CCN(c3ccccc3F)CC2)C1 (configuration not stated),-9.2,-5.5,x,i,18.1,5.4,-11.6,9.3,
O=[N+]([O-])c1ccc(N2CCN(S(=O)(=O)c3ccccc3)CC2)c2cccnc12,1.9,0.4,16.2,i,x,3.9,-5.3,-2.3,
CCOc1ccc(CCNC(=O)COC(=O)Cn2cnc3ccccc3c2=O)cc1OCC,3.6,u,-11.9,i,7.3,2.5,2.5,15.8,
COc1cccc(N2CCN(S(=O)(=O)c3ccc4c(c3)N(C(C)=O)CCO4)CC2)c1,-7.5,9.2,-5.9,i,-4.2,-1.5,-11.9,3.8,
CCn1c(CCNC(=O)c2ccccc2Cl)n[nH]c1=S,6.3,9.5,x,i,-11.1,8.1,5.3,-2.4,
# Further entries
SMILES,eIF4H FP inh,PABP FP inh,Env fusion inh,Rce1 inhib,UUG fidelity,MT1-MMP act inh,MT1-MMP act inh RFP,CSC inhib,others
COc1ccc(NC(=O)CSCC(=O)Nc2nnc(C)s2)cc1,x,x,u,i,x,0.1,4.0,-4.9,
CCN1Cc2c(/C=C/c3ccccc3)nc3ccc(OC)cc3c2N(c2cccc(Cl)c2)C1,u,u,14.1,i,x,-32.6,-1.6,107.1*,
OCCN1c2ccccc2CCc2ccccc21,x,x,-7.3,i,-7.1,-4.4,2.2,x,
Cc1cc(C)c(/C([O-])=C(/C(=S)Nc2ccc(SC(F)F)cc2)[n+]2ccccc2)cc1C,-0.1,-6.8,13.5,i,-21.1,-0.6,-1.0,17.4,
C[C@H](CO)N1C[C@H](C)[C@@H](CN(C)Cc2ccncc2)Oc2c(NC(=O)C3CC3)cccc2C1=O,x,x,-24.1[16.7 µM],x,-3.3&-12.5,-1.5,2.6,-20.0,
CC(C)Cn1c(-c2ccc(Br)o2)n[nH]c1=S,-3.7,0.2,13.9,i,x,2.1,4.7,-6.1,
O=C(COc1ccc2c(-c3ccccc3)cc(=O)oc2c1)NCc1cccs1,-7.5,-3.4,x,i,-15.4,2.3,1.3,9.3,
CCC(=O)c1cc2c(C)cc(=O)oc2c(C)c1OC(C)=O,-1.9,115.5,-94.3,i,x,-5.7,-4.9,-15.6,eIF4H FP inh retest=-1.2;PABP FP inh retest=3.8
CN(C)CCCN(C(=O)c1ccco1)c1nc2ccc(F)cc2s1,3.9,-4.4,-4.6,i,x,2.7,0.1,-14.9,
COc1ccc(OC)c(C(c2nnnn2Cc2ccccc2)N2CCC(C(N)=O)CC2)c1 (configuration not stated),0.0,7.0,x,i,2.7,2.6,8.3,3.6,
Cc1ccc(C(=O)NC2CC(C)(C)NC(C)(C)C2)cc1Cl,1.9,-6.4,-9.5,x,-8.5,-0.2,-0.5,-2.0,
CNC(=O)COc1ccc(C=O)cc1OC,-4.5,-2.2,0.0,i,x,0.9,4.0,16.9,
CCOC(=O)/C(C#N)=C\C1=C(N2CCOCC2)CC(C)(C)OC1,7.9,-6.3,-10.9,i,x,2.9,3.5,-11.9,
O=C(C1CCCN(Cc2ccccc2[N+](=O)[O-])C1)N1CCCC1 (configuration not stated),14.6,-0.3,-38.8,i,4.6,-0.5,1.1,-5.7,
Cc1c(C(=O)N2CCCC2)c(S(=O)(=O)Nc2ccccc2Cl)c(C)n1C,8.7,6.9,0.0,i,-3.5,0.9,1.7,-9.4,
N/C(=N\OC(=O)Nc1ccccc1)c1ccno1,0.0,5.8,-1.4,i,-16.2,-0.2,1.8,-4.3,
COc1ccc(OCC(=O)C2CC2)c(C#N)c1,5.7,-8.1,6.2,i,x,8.1,1.7,-1.1,
CC1(/[N+]([O-])=C/c2cccc(Cl)c2)CCCCC1=O (configuration not stated),5.0,-3.1,-9.7,i,x,-1.1,1.8,-8.0,
CCCCCCCc1nc2c(=O)n(C)c3ccccc3c2o1,-5.7,-5.3,-48.9,i,x,2.5,-0.3,0.2,
CCCCC(=O)Nc1ccc(Br)cc1C(=O)O,2.6,3.8,-83.7,i,-8.0,6.5,9.0,11.4,
O=C(c1ccco1)N1CCN(c2ncnc3c(-c4ccc(Cl)cc4)nsc23)CC1,14.4,-5.1,x,i,-22.6,-2.6,-1.1,-12.6,
CN(CC(=O)Nc1ccc(Cl)c(C(F)(F)F)c1)C(=O)C1CC(=O)N(Cc2ccco2)C1 (configuration not stated),x,x,14.5,i,4.2,-1.4,-2.7,10.7,
CC(C)(C)C1CCC(C(=O)Nc2nccs2)CC1 (configuration not stated),2.8,-4.4,0.2,i,-30.5,-2.4,-10.8,7.9,
CCS(=O)(=O)C1=NN2C(=N)/C(=C\c3ccc(OCCOc4cccc(OC)c4)c(OC)c3)C(=O)N=C2S1,33.8,29.8,-5.1,i,-24.5,5.0,1.1,1.2,
C[C@H](CO)N1C[C@H](C)[C@@H](CN(C)S(=O)(=O)c2cccs2)Oc2ccc(NC(=O)Nc3ccc(C(F)(F)F)cc3)cc2C1=O,x,x,8.2[16.7 µM],x,-5.4&3.6,7.7,-0.5,60.9,
C/C(=N\NC(=O)c1cc2ccccc2cc1O)c1ccc2c(c1)OCO2,30.9,0.4,x,i,-7.6,4.0,6.6,28.8,
COCCNC(=O)c1ccc(CN2CCc3ccccc3C2)cc1,-1.2,27.3,6.3,i,x,-2.2,-0.3,5.0,
COc1cccc(-n2nnnc2SCC(=O)Nc2ccc3c(c2)OCCO3)c1,-16.7,-5.8,x,x,-9.1,2.9,1.0,7.4,
CN(C1=NC(=O)CS1)c1ccc(O)cc1,-5.2,-6.6,13.5,x,-12.0,-4.7,-1.7,13.7,
CCOC(=O)c1ccccc1NC(=O)CN1CCC(n2nnc3cc(C(F)(F)F)ccc32)CC1,5.3,14.4,37.5,i,-11.2,1.3,2.2,-4.8,

# Not a retest: 2 of the compounds above.
SMILES,eIF4H FP inh,PABP FP inh,Env fusion inh,Rce1 inhib,UUG fidelity,MT1-MMP act inh,MT1-MMP act inh RFP,CSC inhib,others
COc1ccc(NC(=O)CSCC(=O)Nc2nnc(C)s2)cc1,x,x,u,i,x,0.1,4.0,-4.9,
CCN1Cc2c(/C=C/c3ccccc3)nc3ccc(OC)cc3c2N(c2cccc(Cl)c2)C1,u,u,14.1,i,x,-32.6,-1.6,107.1*,

# Four entries out of the list, sorted by formula weight, ascending:
SMILES,eIF4H FP inh,PABP FP inh,Env fusion inh,Rce1 inhib,UUG fidelity,MT1-MMP act inh,MT1-MMP act inh RFP,CSC inhib,others
CN(C1=NC(=O)CS1)c1ccc(O)cc1,-5.2,-6.6,13.5,x,-12.0,-4.7,-1.7,13.7,
CCCCCCCc1nc2c(=O)n(C)c3ccccc3c2o1,-5.7,-5.3,-48.9,i,x,2.5,-0.3,0.2,
COCCNC(=O)c1ccc(CN2CCc3ccccc3C2)cc1,-1.2,27.3,6.3,i,x,-2.2,-0.3,5.0,
CCS(=O)(=O)C1=NN2C(=N)/C(=C\c3ccc(OCCOc4cccc(OC)c4)c(OC)c3)C(=O)N=C2S1,33.8,29.8,-5.1,i,-24.5,5.0,1.1,1.2,

# Assay outcomes: PubChem, several laboratories
